Mtb MbtI inh: blocks the Mycobacterium tuberculosis siderophore enzyme MbtI. P9WFX0. purified MbtI enzyme, fluorescence intensity read-out. inhibition, %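 (about 17 µg/mL by stock and volumes)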. hit rate 0.89% among 100,000;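 active means above 50% in both replicates, above 80% if mildly self-fluorescent; inactive means the rest, strongly fluorescent compounds included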;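 further: 0% = mean of negative and 100% = mean of positive controls; one replicate is shown; some compounds called inactive have numbers as strong as hits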
PV pol inh: poliovirus RNA polymerase inhibition; hit rate 0.66% among 150,000; poliovirus polymerase elongation, fluorescence polarization; active compounds read low; P03300; % elongation, % (compound at 16.7 µg/mL); in the data active means % elongation below about 90%; further: some results filed as inactive read as strong as hits
Target sequence (P03300 1749-2209 limits assumed): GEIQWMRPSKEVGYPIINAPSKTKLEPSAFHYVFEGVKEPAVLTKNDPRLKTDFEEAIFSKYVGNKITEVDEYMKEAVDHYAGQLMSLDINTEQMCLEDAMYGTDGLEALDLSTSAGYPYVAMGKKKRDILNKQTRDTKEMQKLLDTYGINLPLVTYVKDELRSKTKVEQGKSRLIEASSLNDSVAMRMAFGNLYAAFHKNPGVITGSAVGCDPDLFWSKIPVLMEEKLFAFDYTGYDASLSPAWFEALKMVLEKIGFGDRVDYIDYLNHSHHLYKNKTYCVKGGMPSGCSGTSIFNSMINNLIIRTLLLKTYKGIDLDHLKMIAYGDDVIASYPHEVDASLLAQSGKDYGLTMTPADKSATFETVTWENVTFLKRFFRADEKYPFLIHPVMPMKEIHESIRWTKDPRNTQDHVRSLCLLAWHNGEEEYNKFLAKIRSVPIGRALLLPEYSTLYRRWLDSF
Mtb MenB inh: inhibitors of Mycobacterium tuberculosis MenB enzyme. inhibition, %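 (about 12 µg/mL by stock and volumes)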. AID 540299. P9WNP5. hit rate 0.43% among 100,000. MenB enzyme assay, absorbance read-out; some hits fall short of the stated cut;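 active means mean of two replicates above 30%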;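 further: 0% = no compound and 100% = wells with inactive enzyme; the first replicate is given; strong numbers were not always called active; inactives centre near -10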
Target sequence (P9WNP5 whole entry, looked up): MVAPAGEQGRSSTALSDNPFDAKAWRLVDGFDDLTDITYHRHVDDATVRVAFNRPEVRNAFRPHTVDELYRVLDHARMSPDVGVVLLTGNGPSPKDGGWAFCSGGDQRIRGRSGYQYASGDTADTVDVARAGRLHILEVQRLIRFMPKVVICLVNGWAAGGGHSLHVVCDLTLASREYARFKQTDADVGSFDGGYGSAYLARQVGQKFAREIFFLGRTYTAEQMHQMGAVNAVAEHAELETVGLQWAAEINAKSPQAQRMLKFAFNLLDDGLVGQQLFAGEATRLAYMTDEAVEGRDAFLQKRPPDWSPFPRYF
PV pol inh intensity: further read-out of PV pol inh, marked with its call; % elongation; measured here: total intensity read-out; formula for this scale not given here;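 total fluorescence in place of polarization; lower means less elongation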
Numbers without * were called inactive; nt = not tested or not shown.

Screens in order – Mtb MbtI inh	PV pol inh	PV pol inh intensity	Mtb MenB inh
> Cn1c(-c2cc3ccc(O)c(CN4CCCC4)c3oc2=O)nc2ccccc21
→ 20	88	129	-331
> CN1c2ccsc2C(=O)CS1(=O)=O
→ 12	102	105	-45
> Cc1ccc(-c2csc(NC3OC(=O)c4ccccc43)n2)cc1C (stereo not drawn)
→ 0	100	99	-15
> CC(C)c1ccc(NC(=O)Nc2cccs2)cc1
→ 11	98	102	-29
> O=C(c1cn(-c2ccccc2)nc1-c1cccs1)N1CCOCC1
→ -3	106	105	-14
> Cc1ccccc1NC(=O)NCC1CCN(C(=O)OC(C)(C)C)CC1
→ -4	100	100	10
> OC[C@@H]1CCCN2CCCC[C@H]12
→ -8	102	103	-4
> O=C(O)C1CSC2(c3ccccc3)CCC(=O)N12 (stereo not drawn)
→ -23	100	105	-5
> O=C(Nc1ccc(Cl)cn1)c1cccs1
→ nt	99	104	-9
> CCNC(=S)NNc1ccc(C)cc1C
→ 12	100	105	-30
> Cc1ccsc1C(=O)OCC(=O)N(C)C1CCCCC1
→ -7	103	107	nt
> O=C1Nc2cc(C(=O)NCc3ccccc3)ccc2S/C1=C\c1ccccc1
→ -13	102	107	-1
> COc1ccc(C2C(=O)N(CCc3ccccc3)CC(=O)N2C2CCCCC2)cc1 (stereo not drawn)
→ 10	102	99	-43
> COc1ccc(N2C(=O)[n+]3ccccc3C2C(=O)Nc2c(C)cccc2C)cc1 (stereo not drawn)
→ 5	99	101	-3
> CCC(C(=O)NCc1ccccc1)n1c2ccccc2c2cn[nH]c(=O)c21 (stereo not drawn)
→ 27	105	108	1
> CC(=O)N1CCN(C(=O)CN2C(=O)S/C(=C\c3ccc(Cl)cc3)C2=O)CC1
→ -4	99	100	-18
> CCc1ccc(N=C(N)N=C(N)N)cc1
→ -15	106	108	8
> CCCCC(=O)c1ccc(C)[nH]c1=S
→ nt	103	108	-3
> Cc1c(NC(=O)CSc2ccccn2)c(=O)n(-c2ccccc2)n1C
→ -4	101	101	3
> O=C(O)CCSc1ccc(F)c(F)c1
→ 7	107	108	-5
> O=C1c2ccccc2NC(c2ccc3cccnc3c2)N1c1cccc(C(F)(F)F)c1 (stereo not drawn)
→ nt	103	108	-24
> O=c1onc(-c2cccs2)n1Cc1ccc(F)cc1Cl
→ -8	102	98	-11
> CCC(C)N(C(=O)CSc1nc(-c2ccccc2)cs1)C1CCS(=O)(=O)C1 (stereo not drawn)
→ 9	105	107	-34
> CC(NC(=O)CN1CCN(C(=O)C2CCCO2)CC1)c1ccccc1 (stereo not drawn)
→ 9	98	97	-22
> Cc1cccc(N2CCN(c3nc4ccccc4c(=O)n3Cc3ccccc3)CC2C)c1 (stereo not drawn)
→ 6	105	107	-16
> CCc1ccc(C2CC(=O)NC(NC(=O)Cc3ccc(OC)c(OC)c3)=N2)cc1 (stereo not drawn)
→ -24	102	104	-13
> COC(=O)c1ccc(COn2nnc3ccc(S(=O)(=O)N4CCOCC4)cc32)o1
→ 5	105	109	-17
> N#CC(C#N)=C/C=C/c1cc(C#N)c(N)o1
→ 3	46	244	-240
> Cc1cc(Br)ccc1OCCCN1CCC(C)CC1
→ -4	102	101	2
> CNS(=O)(=O)c1ccc2ccccc2c1
→ -2	101	101	nt
> CC1(CN)CCCC1
→ -9	101	104	nt
> CCn1c2ccccc2c2cc(CNC3CC3)ccc21
→ 70	101	99	31
> CSc1cccc(N2CC(C(=O)N3CCN(S(=O)(=O)c4ccccc4Cl)CC3)CC2=O)c1 (stereo not drawn)
→ 3	106	109	-35
> COc1cccc(-c2cc(C(=O)N3CCN(C(c4ccccc4)c4ccccc4)CC3)[nH]n2)c1
→ -6	102	98	-5
> COc1ccc(C2=NN(CC(=O)N3CCN(c4cccc(Cl)c4)CC3)C(=O)CC2)cc1
→ -19	101	102	0
> COc1ccc(-c2nc3ccccc3n2CCc2ccccc2)cc1OC
→ 108	104	106	-8
> O=C(Cn1cnc2nc3c(cc2c1=O)CCCC3)NCCC1=CCCCC1
→ 116	103	106	6
> c1ccc2c(CNC3CCCCC3)c[nH]c2c1
→ -115	99	101	13
> CCSc1ccccc1C(=O)Nc1nncs1
→ 42	100	101	-21
> O=C(COc1ccc(Cl)cc1)Nc1c(-c2ccc(F)cc2)nc2ccccn12
→ 6	103	102	-35

An excerpt from above in order of SMILES length, highest first:
Screens in order – Mtb MbtI inh	PV pol inh	PV pol inh intensity	Mtb MenB inh
> O=C(COc1ccc(Cl)cc1)Nc1c(-c2ccc(F)cc2)nc2ccccn12
→ 6	103	102	-35
> O=C(Cn1cnc2nc3c(cc2c1=O)CCCC3)NCCC1=CCCCC1
→ 116	103	106	6
> COc1ccc(-c2nc3ccccc3n2CCc2ccccc2)cc1OC
→ 108	104	106	-8

Other results follow.
Screens in order – Mtb MbtI inh	PV pol inh	PV pol inh intensity	Mtb MenB inh
> C=CCSc1nnc(NC(=O)Cc2coc3ccc(OC)cc23)s1
→ -13	101	103	-12
> CC(=O)N(C(C)=O)c1nccc(-c2c(-c3ccccc3)noc2C)n1
→ -6	111	112	-20
> COc1cc(C=Nc2ccc(N=Cc3ccc(OC(C)=O)c(OC)c3)cc2)ccc1OC(C)=O
→ nt	107	110	9
> O=C(NCCCc1ccccc1)NC1CC(=O)N(c2ccc(F)cc2)C1 (stereo not drawn)
→ 2	96	104	7
> C=CCC1c2cccc(C(=O)O)c2C(=O)N1c1ccc(F)cc1 (stereo not drawn)
→ 28	104	103	-16
> COc1ccc(CNS(=O)(=O)c2ccc3c(c2)N(C)CCO3)cc1
→ -15	103	99	9
> CC(=O)Nc1sc2c(c1SC#N)CCCC2
→ 9	103	106	-52
> N#CCSc1nc(-c2ccccc2)c2cc(Cl)ccc2n1
→ -4	99	100	0
> CCN(C(=S)NC)c1cccc2ccccc12
→ -7	108	108	-8
> CC1=CCC(COC(=O)CN2CCCCC2)CC1 (stereo not drawn)
→ -19	99	99	2
> O=C(CCc1nnc2ccc(N3CCCC3)nn12)NCc1ccccn1
→ 19	98	103	7
> N=CC1=C(O)c2ccccc2C1=O
→ 20	103	101	-15
> COc1ccc(-n2c(-c3ccc(Br)cc3)nc3cc4c(cc32)OCO4)cc1
→ -5	106	131	-22
> O=C1c2cnccc2CN1Cc1ccccc1
→ -14	103	101	-18
> Cc1cc(C)nc(SC(C)CN(C)C)n1 (stereo not drawn)
→ nt	99	94	8
> O=C(NCCC1=CCCCC1)c1ccc2c(c1)[nH]c(=O)n2C1CCCC1
→ 11	102	101	0
> Cc1ccc(S(=O)(=O)NC(=NCc2ccc(Cl)cc2)Nc2nc(C)cc(C)n2)cc1
→ 4	103	104	9
> CN(Cc1ccccc1)C(=O)COC(=O)c1cc(Cl)nc(Cl)c1
→ -6	102	99	-10
> O=C1N/C(=N/N=C/c2ccco2)SC1Cc1ccc(SC(F)F)cc1 (stereo not drawn)
→ -3	102	108	-32
> O=C(O)C(Cc1cnc[nH]1)NS(=O)(=O)c1cccs1 (stereo not drawn)
→ 0	104	98	15

Given with tabs: entries from further up.
canonical_smiles	Mtb MbtI inh	PV pol inh	PV pol inh intensity	Mtb MenB inh
Cc1cc(C)nc(SC(C)CN(C)C)n1 (stereo not drawn)	nt	99	94	8
CN(Cc1ccccc1)C(=O)COC(=O)c1cc(Cl)nc(Cl)c1	-6	102	99	-10
O=C(NCCC1=CCCCC1)c1ccc2c(c1)[nH]c(=O)n2C1CCCC1	11	102	101	0

(listing goes on)
Screens in order – Mtb MbtI inh	PV pol inh	PV pol inh intensity	Mtb MenB inh
> CCNCc1cccc(F)c1
→ -4	102	107	15
> CC(C)CN(CC(C)C)c1ncnc2c1cnn2-c1ccccc1
→ -5	100	102	-24
> CCOC(=O)Nc1ccc2c(c1)OCO2
→ -9	105	102	-33
> Cc1cc(C)n2ncc(/C(N)=N/OC(=O)c3ccccc3F)c2n1
→ -3	101	97	1
> CC(C)c1ccc(NC(=O)c2ccc(N(C)C)cc2)cc1
→ 24	99	99	-1
> CCC(=O)c1ccc(OCc2cn3cc(Cl)ccc3n2)cc1
→ -17	101	96	-1
> CC(C)(C)c1ccccc1NS(C)(=O)=O
→ -6	101	104	-9
> CN(C)c1ccc(C2N=C(c3ccccc3)NO2)cc1 (stereo not drawn)
→ -26	103	109	nt
> Cc1ccc(C(C(=O)Nc2c(C)n(C)n(-c3ccccc3)c2=O)N(Cc2ccco2)C(=O)Cc2c[nH]c3ccccc23)cc1 (stereo not drawn)
→ -4	101	102	-31
> O=C(CSc1ncccn1)N/N=C/c1cccc2c1OCCO2
→ -35	101	100	1
> CCOc1ccccc1Nc1nnc(SCC(=O)NC(C)(C#N)C2CC2)s1 (stereo not drawn)
→ 1	99	100	3
> CCC(CO)NCc1ccc(-c2ccc(F)c(Cl)c2)o1 (stereo not drawn)
→ 9	99	99	-9
> c1cncc(CSc2ccc(-c3cccs3)nn2)c1
→ 1	106	104	-23
> C=C[n+]1ccn(-c2nc3ccccc3nc2[N-]S(=O)(=O)c2ccccc2)c1
→ -11	102	108	-9
> CCN1C(=O)/C(=C2\SC(=S)N(NC(C)=O)C2=O)c2ccccc21
→ nt	101	101	-14
> O=C(O)C1CC2CCCC(C1)C2=O (stereo not drawn)
→ 9	98	94	-11
> CN1CCC(NC(=O)Cc2c(F)cccc2Cl)CC1
→ 0	101	99	-3
> Cc1ccc(C(N)=S)c(C)c1
→ -2	104	106	-1
> Cc1cc(C)c2nc(NCCN3CCCC3)cc(C)c2c1
→ 85	91	96	-13
> CSc1ccc(/C=C(\C#N)C(=O)NC2CCCCC2C)cc1 (stereo not drawn)
→ -6	103	101	9
> Cc1cccn2cc(CCNS(=O)(=O)c3ccc(Oc4ccccc4)cc3)nc12
→ -26	103	96	-79
> CC1(C)OC2CS(=O)(=O)CC2O1 (stereo not drawn)
→ -2	101	101	5
> O=C(Nc1ccccc1)C1CCCN1/C=C/C(=O)C(F)(F)F (stereo not drawn)
→ 8	103	102	-16
> CCOC(=O)c1c(Cc2ccccc2Cl)cn(C)c1C
→ 6	99	102	-7
> NCCNC(=O)c1c(O)c2cccc3c2n(c1=O)CCC3
→ 72	97	101	20
> Cc1[nH]n(C(N)=S)c(=O)c1N=Nc1ccc(Br)cc1
→ 4	100	97	-25
> COc1cc(N=C(C)c2c(C)[nH]n(-c3nc4ccccc4s3)c2=O)cc(OC)c1
→ -6	102	103	-10
> Cc1cnc(NC(=O)CSc2nc3sc4c(c3c(=O)n2C)CCCC4)s1
→ -18	103	102	0
> Nc1nc(COC(=O)C2COc3ccccc3O2)nc(Nc2ccccc2)n1 (stereo not drawn)
→ 4	105	103	-10
> CC1(C)CC(=O)C=C(N2CCN(S(=O)(=O)/C=C/c3ccccc3)CC2)C1
→ 12	103	104	-11
> Cc1ccc(/C=C/C(=O)N2CCN(S(=O)(=O)/C=C/c3ccccc3)CC2)o1
→ 16	nt	nt	-33
> CC1Cn2cc(C(=O)N3CCN(c4ccccc4)CC3)c(=O)c3c(Cl)ccc(c32)O1 (stereo not drawn)
→ 63	100	97	-1
> C=CCn1cnc2ccc(Br)cc2c1=O
→ nt	108	111	3
> CCN(CC(=O)Nc1ccccc1OC)C(=O)c1cccc(CS(C)(=O)=O)c1
→ -2	105	108	9
> CSc1nc2c3ccccc3n(C(C)=O)c2n1Cc1ccccc1
→ 20	100	103	18
> CCn1cnc2cc(NCc3ccccc3OC)ccc21
→ -51	104	107	8
> COC(=O)c1sc2nc(C)[nH]c(=S)c2c1C
→ -30	108	110	-11
> Cc1cc(C(=O)COC(=O)C2CC2)c(C)n1CC(F)(F)F
→ 11	103	95	10
> Cc1cc(SCC(=O)NCc2ccco2)nc2ccccc12
→ 22	100	100	-4
> CNC1CCCc2c1n(C)c1ccc(Cl)cc21 (stereo not drawn)
→ -3	100	102	-3
> NC1=C(C(=O)NCc2ccco2)C(=Nc2ccccc2)SC1C(=O)Nc1ccc(Oc2ccccc2)cc1 (stereo not drawn)
→ 13	103	108	-34
> CN1C(=O)Cc2cc(S(N)(=O)=O)ccc21
→ -14	100	103	-20
> Cc1cc(C)c2c(N)c(C(=O)c3cccs3)sc2n1
→ -8	103	113	-25
> Cc1c(C(=O)O)oc2ccc(S(=O)(=O)NCCc3ccccc3)cc12
→ -11	101	105	-15
> CC(C)[C@H](NS(=O)(=O)c1ccc2c(c1)OCCO2)C(=O)OCc1nc2ccccc2s1
→ 16	nt	nt	-13
> O=C(O)/C(=C\c1ccco1)NC(=O)c1ccco1
→ nt	101	109	2
> Cn1c(/C(C#N)=C2/CCCCCN2)nc2ccccc21
→ 6	102	103	nt
> Cc1cc2cc(CNC(=S)Nc3ccccc3)ccc2n1C
→ -3	103	105	-40
> O=C(C(Cc1ccccc1)NS(=O)(=O)c1cccc2nsnc12)N1CCc2ccccc21 (stereo not drawn)
→ -16	101	104	-20
> CCC(=O)Nc1cccc(-n2c(C)nc3ccccc3c2=O)c1
→ 16	105	104	-16

(next part)
Screens in order – Mtb MbtI inh	PV pol inh	PV pol inh intensity	Mtb MenB inh
> C#CCOc1ccc(C2C3=C(CCCC3=O)N(CCC(=O)O)C3=C2C(=O)CCC3)cc1
→ 25	103	102	-179
> CC1SC(c2ccccc2)NC1=O (stereo not drawn)
→ 91*	100	98	-128
> COc1ccccc1CNC(=O)Nc1noc2c1COc1ccccc1-2
→ -8	105	107	3
> COC(=O)c1cc(-c2ccc(/C=C3\C(=O)NC(=O)C(C#N)=C3C)o2)ccc1Cl
→ 84	101	95	-2
> NC(=O)c1sc2nc(-c3ccccc3)cc(-c3ccco3)c2c1N
→ 9	130	190	-32
> CC(C)OC(=O)Nc1ccc(Cl)cc1
→ nt	100	102	-22
> CC(C)[C@@H]1CC[C@@H](C)C[C@H]1O
→ -18	100	104	0
